# Mtb betalactam = beta-lactam sensitization of Mtb H37Rv, H37Rv; actives 0.27% (n = 330,000); M. tuberculosis H37Rv growth with meropenem, percent inhibition; hits of this screen are not shown here; inhibition, % at 25 µM; AID 434955, 2010;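 active = about 74% or more and at least 40 points above the plate without the antibiotic, then above 30% in a dose series; inconclusive = first-round hits that could not be retested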;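 also: growth measured after seven days incubation then overnight dye step; 0% = bacteria only wells and 100% = bacteria with antibiotic; twin plates without the antibiotic show which effects depend on it; some results filed as inactive read as strong as hits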
# The depositor's hits bear a star; u = inconclusive.
Molecule | Mtb betalactam
CC(C)(C)OC(=O)C[C@H]1C/C=C\C[C@H](CC(=O)N(CCO)Cc2ccccc2)C(=O)NC[C@H](c2ccccc2)OC1=O | 0
Cc1nc(SCC(=O)NC2CCS(=O)(=O)C2)c(C#N)c(C)c1C (stereo not given) | 2
CN(C)C(CNC(=O)c1ccc(C2SCCS2)cc1)c1ccccc1 (stereo not given) | -5
CC(NC(=O)COC(=O)C1(C)CC1(Cl)Cl)c1ccccc1 (stereo not given) | 2
Nc1c(C(=O)CSc2nnc(-c3ccccc3)o2)c(=O)[nH]c(=O)n1C1CC1 | 2
COc1ccc(/C=C/C(=O)c2ccc3c(c2)OCO3)cc1OC | 74
COc1ccc(C(=O)N/C(=C/c2ccco2)C(=O)NCc2ccco2)cc1 | -29
CN(C)C(CNC(=O)CCNC(=O)c1ccccc1Cl)c1ccco1 (stereo not given) | 1
COc1cc(/C=C/C(=O)OCC(=O)N(C)Cc2ccccc2)ccc1O | 4
Brc1ccccc1-c1nc2c3ccccc3ncn2n1 | 65
N#CC1(NC(=O)CSc2nnc3n2CCCCC3)CCCCC1 | -7
C[C@H](CO)N1C[C@H](C)[C@@H](CN(C)CC2CC2)Oc2c(NC(=O)Cc3ccccc3)cccc2C1=O | 5
Cn1c(SCC(=O)N2CC(=O)Nc3ccccc32)nc2ccccc2c1=O | -3
CCN1C(=O)C(=O)N(CC(=O)N(C)CC(=O)Nc2ccccc2C(F)(F)F)C1=O | 4
COc1ccc(CNC(=O)CCCN2C(=O)NC3(CCCC3)C2=O)cc1 | -4
CCN(CC(=O)Nc1c(F)cccc1F)C(=O)c1cccc(S(=O)(=O)N2CCCCCC2)c1 | -7
CCCOc1cc(NCc2ccccc2)c2ncn(C(C)C)c2c1 | 100
O=C(CNc1ccc(C(F)(F)F)cc1)Nc1cccc(S(=O)(=O)N2CCCC2)c1 | -7
O=C(CCc1ccc(S(=O)(=O)N2CCOCC2)cc1)OCC(=O)c1ccccc1 | -1
O=C(NCCO)c1nc(C(=O)c2ccc(Cl)cc2)c2ccccc2n1 | 5
CC1(C)Oc2ccc3ccc(=O)oc3c2[C@@H](O)[C@@H]1O | 2
O=C(CSc1nc2ncc(Cl)cc2[nH]1)N1CCC(Cc2ccccc2)CC1 | -6
O=C(Nc1ccccc1N1CCCC1)C1=COCCO1 | -5
CCOC(=O)C1=CC[C@@H](c2cc(OC)c(OC)c(OC)c2)N(S(=O)(=O)c2ccc(C)cc2)[C@H]1C(=O)OCC | -10
COc1ccccc1C1=CC(=O)C[C@H](c2ccc3c(c2)OCO3)C1 | 20
COc1ccc(CC(=O)OCc2csc(CC(=O)Nc3ccc(C)cc3)n2)cc1 | -2
O=C(COC(=O)c1cc(=O)[nH]c2ccccc12)NCc1cccc(Cl)c1 | 0
CCOC(=O)[C@H]1[C@H]2COc3ccc(C)cc3[C@@H]2N2C(=O)c3cc(C)ccc3NC(=O)[C@@]12C | 16
O=C(CN(Cc1ccc(Br)cc1)S(=O)(=O)c1ccccc1)NCC1CCCO1 (stereo not given) | u
CC(C)(C)OC(=O)N[C@@H](/C=C/c1ccccc1)C(=O)OC(C)(C)C | 10
CCN(c1ccccc1)S(=O)(=O)c1ccc(Oc2ccccc2C(C)=O)nc1 | 2
Cc1ccc(N(CCC#N)C(=O)CSc2nnc3ccccn23)cc1 | -3
CCOC(=O)c1c(C)[nH]c(C(=O)OC(C)C(=O)NC2CCCCC2C)c1C (stereo not given) | 1
O=C(c1cncc(Br)c1)N1CCN(S(=O)(=O)c2ccc3ccccc3c2)CC1 | -4
CCCn1c(SCC(=O)N2CC(=O)Nc3ccccc32)n[nH]c1=O | 2
COc1ccccc1NS(=O)(=O)c1cc(N=N/C(C(=O)Nc2ccc(Cl)cc2)=C(/C)O)ccc1C | -2
CC(C)(C)OC(=O)N1CCN(C(=O)c2nc[nH]c2C(=O)N2CCN(c3ccccc3)CC2)CC1 | 0
CCN(CC)S(=O)(=O)c1cc(NS(=O)(=O)c2cccs2)ccc1C | -4
CC(=O)c1cccc(NC(=O)COC(=O)C2CCCN2C(=O)c2cccs2)c1 (stereo not given) | -5
CC(=O)N1c2ccccc2C2CCCC[C@H]21 (stereo not given in full) | 2

# Exported as labelled records: part of the list above
O=C(Nc1ccccc1N1CCCC1)C1=COCCO1
  Mtb betalactam: -5
CCOC(=O)C1=CC[C@@H](c2cc(OC)c(OC)c(OC)c2)N(S(=O)(=O)c2ccc(C)cc2)[C@H]1C(=O)OCC
  Mtb betalactam: -10

# Additional structures follow:
Molecule | Mtb betalactam
CCOc1ccc(CCNC(=O)COC(=O)COc2ccc(C#N)cc2)cc1OCC | -1
Cc1ccc(S(=O)(=O)Nc2ccc3c(c2)C(=O)N([C@H](C)CO)C[C@H](C)[C@@H](CN(C)Cc2ccccc2)O3)cc1 | 11
COc1cc(/C=C/C(=O)OCC(=O)Nc2c(C)n(C)n(-c3ccccc3)c2=O)cc(OC)c1OC | -7
CC(=O)c1ccc(S(=O)(=O)N2CCC(C(=O)Nc3ncc(C)s3)CC2)cc1 | -4
Cc1ccccc1OCC(=O)OCC(=O)NCc1ccccc1 | 4
O=C(CNC(=O)C12CC3CC(CC(C3)C1)C2)OCc1ccc(F)cc1Cl | 86
COc1cc(C(=O)OCC(=O)NC2CCCCC2)cc(OC)c1OC | -11
NCc1ccccc1CS(=O)(=O)N1CCOCC1 | 1
Cc1noc(C)c1S(=O)(=O)N(C)C[C@H]1Oc2c(NC(=O)Nc3ccc4c(c3)OCO4)cccc2C(=O)N([C@H](C)CO)C[C@@H]1C | -3
CCNc1oc(-c2ccccc2F)nc1S(=O)(=O)c1ccccc1 | u
Cc1nc2ccc(NC(=O)c3ccc(C)c(S(=O)(=O)N4CCOCC4)c3)cc2s1 | -6
COc1cc(OC)cc(-c2cc3ccccc3c(=O)o2)c1 | 5
COC(=O)C1=C(C)N(Cc2ccccc2)C(=NCCc2c[nH]c3ccccc23)N[C@H]1c1cccc(F)c1 | 100
CCOC(=O)[C@@H]1[C@H]2COc3ccccc3[C@@H]2N2C(=O)N(c3ccc(C)cc3)C(=O)[C@@]12C | 1
CN(C)Cc1c(C(=O)N/N=C/c2ccoc2)nnn1-c1nonc1N | -5
O=C(CNC(=O)c1ccc(C(F)(F)F)cc1)NC1CC1 | -7
COC(=O)C1=CO[C@@H](O[C@@H]2O[C@H](CO)[C@@H](O)[C@H](O)[C@H]2O)C2C(CO)=CCC12 (stereo not given in full) | 3
O=C(CCNC(=O)c1ccc([N+](=O)[O-])cc1)Nc1cccc(S(=O)(=O)N2CCCCCC2)c1 | -4
COC(=O)c1cc(C(=O)OCC(=O)c2ccc[nH]2)cc([N+](=O)[O-])c1 | 10
CCN(C(=O)COC(=O)c1ccc(O)cc1O)c1c(N)n(Cc2ccccc2)c(=O)[nH]c1=O | 7
CCCc1cc(=O)oc2cc(C)cc(OC(C)C(=O)N[C@@H](Cc3c[nH]c4ccccc34)C(=O)O)c12 (stereo not given in full) | -9
CN(c1ccccc1)S(=O)(=O)c1cccc(NC(=O)CN2C(=O)NC3(CCCCC3)C2=O)c1 | 0
Cc1ccc(C(=O)OCC(=O)NC2CC2)cc1S(=O)(=O)N1CCOCC1 | -4
NCCCCCc1cn(CC(=O)NCCCCCCCCCCC(=O)N2CCNCC2)nn1 | 6
CN(CCc1ccccc1)C(=O)c1cccc(NC(=O)Cc2ccc([N+](=O)[O-])cc2)c1 | 7
CN(Cc1ccccc1)C(=O)COC(=O)CN1C(=O)c2ccccc2C1=O | 0
CNS(=O)(=O)c1cccc(C(=O)OCC(=O)c2ccc3[nH]c(=O)[nH]c3c2)c1 | -11
Cc1cccn2c(=O)c3cc(C(=O)NC4CCCCC4)sc3nc12 | -1
Cc1noc(C)c1C(=O)OCC(=O)N1CCc2ccccc21 | -2
COc1ccccc1NC(=O)COC(=O)CCc1ccc(S(=O)(=O)N2CCOCC2)cc1 | 3
COc1ccc(NC(=O)CSc2nnc(C3CC3)n2C)cc1S(=O)(=O)N1CCOCC1 | 1
Cc1ccn2cc(CCNC(=O)C3CC=CCC3C(=O)O)nc2c1 (stereo not given) | -7
O=C(NC(=S)Nc1ccc(Br)cc1F)C1CCCCC1 | 0
COc1ccc(S(=O)(=O)N(C)C[C@H]2Oc3c(cccc3N(C)C)C(=O)N([C@H](C)CO)C[C@@H]2C)cc1 | 0
COCC1CCCCN1C(=O)c1cccc(OC2CCN(C(=O)C3CC3)CC2)c1 (stereo not given) | -2
COc1ccc(C)cc1NC(=O)CO/N=C(\N)CC(=O)Nc1ccccc1OC | -9
C[C@]12C[C@@H](O)[C@H](O)CC1=CCC1C2CC[C@]2(C)C(=O)CCC12 (stereo not given in full) | -3
COc1ccc(S(=O)(=O)Nc2ccccc2C(=O)NC2CC2)cc1NC(C)=O | -10
CC1CC(C)CN(C(=O)COC(=O)/C=C/c2ccco2)C1 (stereo not given) | 14
CCOC(=O)c1ccc(N2C(=O)c3cccc4c(C(=O)O)ccc(c34)C2=O)cc1 | -1
CS(=O)(=O)c1ccc(NC(=O)c2cccc(-n3cnnn3)c2)cc1 | -2
COc1cccc(C(CNC(=O)c2ccc(Cl)c(S(=O)(=O)N3CCCC3)c2)N(C)C)c1 (stereo not given) | 4
CC(=O)Nc1ccc(S(=O)(=O)NNC(=O)CCC(=O)NCc2ccccc2)cc1 | -8
CCN(CC)S(=O)(=O)c1ccc(N2CCCC2)c(NC(=O)C2=NN(c3ccccc3)C(=O)CC2)c1 | 61
O=C1CCC(C(=O)N2CCC(CO)CC2)CN1Cc1ccc(Cl)cc1 (stereo not given) | u
O=S(=O)(NC1CCCCCC1)c1cccc(Cl)c1 | 6
COC(=O)C1=C(c2ccc(OC(F)(F)F)cc2)C[C@@H]2CC[C@H]1N2C(=O)NCCOc1ccccc1Cl | 6
COc1c(O)cc(O)c2c(=O)cc(-c3ccccc3)oc12 | -4
O=C(NC1CCCCC1)C(c1ccc(F)cc1)N(C(=O)c1csnn1)C1CC1 (stereo not given) | -1
CCCSc1ccc([C@H]2N[C@@](Cc3ccccc3)(C(=O)OC)[C@H]3C(=O)N(C)C(=O)[C@@H]23)cc1 | -7
CCOC(=O)N1CCN(C(=O)c2ccc(Cl)c(NC(=O)c3cccs3)c2)CC1 | 0
COC(=O)c1ccc(-c2cc3onc(-c4ccccc4)c3c(=O)n2C)cc1 | -7
COc1ccc(CCC(=O)Nc2cc(S(=O)(=O)N3CCOCC3)ccc2OC(C)C)cc1 | -3
CC1(C)CC(=O)C=C(c2ccc3ccccc3c2)C1 | 18
Cc1ccc(S(=O)(=O)Nc2cc3c(C(=O)O)c(C)oc3c3ccccc23)c(C)c1 | 11
Cc1ccc(S(=O)(=O)N2CCN(C(=O)COC(=O)CSc3cc(C)ccc3C)CC2)c(C)c1 | 0
OCCN(CC#CC(O)(c1ccccc1)C1CCCCC1)CCO (stereo not given) | 1
O=C(C[C@H]1C/C=C\CC[C@H](Cc2ccc(F)cc2)C(=O)O[C@H](c2ccccc2)CNC1=O)N[C@H](CO)Cc1ccccc1 | -2
Cc1ccc(NC(=O)C2CCCN(C3=NS(=O)(=O)c4ccccc43)C2)c(O)c1 (stereo not given) | -1
COc1ccc([C@@H]2CC=C(C(=O)O)[C@H](c3ccccc3)N2S(=O)(=O)c2ccc(C)cc2)cc1OC | -3

# Six consecutive entries already listed:
Molecule | Mtb betalactam
Cc1ccc(S(=O)(=O)Nc2cc3c(C(=O)O)c(C)oc3c3ccccc23)c(C)c1 | 11
Cc1ccc(S(=O)(=O)N2CCN(C(=O)COC(=O)CSc3cc(C)ccc3C)CC2)c(C)c1 | 0
OCCN(CC#CC(O)(c1ccccc1)C1CCCCC1)CCO (stereo not given) | 1
O=C(C[C@H]1C/C=C\CC[C@H](Cc2ccc(F)cc2)C(=O)O[C@H](c2ccccc2)CNC1=O)N[C@H](CO)Cc1ccccc1 | -2
Cc1ccc(NC(=O)C2CCCN(C3=NS(=O)(=O)c4ccccc43)C2)c(O)c1 (stereo not given) | -1
COc1ccc([C@@H]2CC=C(C(=O)O)[C@H](c3ccccc3)N2S(=O)(=O)c2ccc(C)cc2)cc1OC | -3

# (cont.)
Molecule | Mtb betalactam
COc1ccc(C(=O)OC(C)C(=O)NCC2CCCCC2)cc1S(=O)(=O)N1CCOCC1 (stereo not given) | -12
O=C1c2ccc(Cl)cc2S(=O)(=O)c2cccc(C(=O)N3CCN(c4ccc(Cl)cn4)CC3)c21 | 49
Cc1ccc(Cl)c(OCC(=O)OCC(=O)c2ccc[nH]2)c1 | 49
O=C(CN1C(=O)C(=O)N(C2CCCC2)C1=O)Nc1ccc(OC(F)F)cc1 | 0
CCCCNc1c(-c2ccc(OC)c(Sc3ccc(OC)cc3)c2)nc2ccc(Cl)cn12 | -7
O=C(CCc1ccccc1)Nc1cccc(S(=O)(=O)N2CCOCC2)c1 | 0
CCN(CC(=O)NCc1ccc(F)cc1)CC(=O)Nc1ccc(Br)cc1F | 1
CN(Cc1ccccc1)C(=O)COC(=O)CCC(=O)c1ccc(F)cc1 | -11
CCOc1ccc(N2CC(C(=O)NNC(=O)c3ccc(F)cc3)CC2=O)cc1 (stereo not given) | -6
O=C(NC(=S)N1CCN(c2ccccc2)CC1)c1ccccc1 | u
CC(C)[C@H](NS(=O)(=O)c1ccccc1F)C(=O)NC1CCCCC1 | -2
CCOC(=O)C1CCN(C(=O)c2cccc(S(=O)(=O)N(CC)c3ccccc3)c2)CC1 | 4
Cc1cc(C(=O)NCC(=O)OC(C)C(=O)N2CCOCC2)ccc1[N+](=O)[O-] (stereo not given) | -2
COc1cc(C(=O)N2CCN(c3cccc(C)c3C)CC2)ccc1OCC(=O)N1CCOCC1 | -2
COc1ccccc1-n1nnnc1SCC(=O)NCC1(N2CCOCC2)CCCCC1 | 1
CC1CCCCC1NC(=O)COc1ccccc1C#N (stereo not given) | 0
CCOc1ccc(S(=O)(=O)NCCC(=O)N2CC=C(c3ccccc3)CC2)cc1 | 40

# From PubChem

# An excerpt; rates above refer to the full screens.
